Vaccinia mCherry = inhibitors of vaccinia virus infection (mCherry reporter signal); Vaccinia virus mCherry reporter infection, fluorescence; about a quarter of the inactives have no number; Potency, µM (doses to about 36.5 µM), inactives show top-dose activity change, negative = inhibition, hits mostly inhibitors; 310,000 tested, 0.63% active; AID 720579; active = well fitted inhibition curve with a large enough effect; inconclusive = small, poorly fitted or top-dose-only effect; inactive = no such curve, though single readings can be large or run the other way; tested in A549 cells; also: nearly all actives have a fitted effect of over 35% in size; inactives centre near -10
VACV Venus inh = vaccinia inhibition (Venus reporter); Vaccinia virus Venus reporter expression, fluorescence; Potency, µM (top dose mostly 36.5 µM), for the others: at the highest dose activity change, negative = inhibition, usual class: inhibitors; 330,000 tested, 0.46% active; AID 720580; active means well fitted inhibition curve with a large enough effect; inconclusive means small, poorly fitted or top-dose-only effect; inactive means no such curve, though single readings can be large or run the other way; tested in A549 cells; also: nearly all actives have a fitted effect of over 30% in size; inactives centre near -10
* hit, by the source's call; i = inactive; ? = inconclusive; · = no result given; & = joins results of further samples. % is scaled to controls: 0 for no effect and ±100 for the full control effect; potency is read from the fitted curve at half-maximal effect. An unsorted share of the library; any-hit rate near 0.87%.

SMILES | Vaccinia mCherry | VACV Venus inh
O=C1Nc2ccccc2Oc2cc([N+](=O)[O-])ccc21 | -29.1% | -7.2%
O=c1c2ccccc2sn1-c1ccc(F)cc1 | -17.1% | -27.7%
CCCCn1c(N)c(N(CC)C(=O)c2c(CC)noc2C)c(=O)[nH]c1=O | i | -6.8%
CCN1CCc2c(OCC(=O)N3CCCCC3)cccc2C1=O | 0.2% | 1.6%
CNN/C(N=Cc1ccc([N+](=O)[O-])s1)=N\S(=O)(=O)c1cc(C)c(Cl)cc1SCc1ccccc1 | -6.3% | -14.1%
Cc1ccc(S(=O)(=O)N2CCCC(C(=O)O)C2)s1 (stereo not given) | -0.8% | -0.9%
CN(C)c1ccc(-c2ccc3oc(-c4ccsc4)cc(=O)c3c2)cn1 | ? | ?
Cc1ccsc1C(=O)Nc1ccc(OCc2ccccc2)cc1 | -12.3% | -2.5%
CC(O)CCc1nc2ccc(C(=O)O)cc2[nH]1 (stereo not given) | -7.8% | -4.0%
Cc1cccc2cc(CN(Cc3cccs3)C(c3nnnn3C3CCCC3)C(C)C)c(=O)[nH]c12 (stereo not given) | -10.7% | 0.2%
Cc1cccc(/C=N/NC(=O)C[n+]2ccccc2)c1 | i | -7.2%
COc1ccccc1-c1nnc(C2CCN(S(=O)(=O)c3ccccc3)CC2)o1 | -13.7% | -10.9%
Cc1nnc(C)n1/N=C/c1cccnc1 | -14.9% | -1.1%
O=C(CSc1nnc(CN2CCOCC2)n1-c1ccccc1)Nc1ccc(Cl)cc1 | -12.3% | -4.4%
COC(=O)c1c(C)oc(C)c1S(=O)(=O)N1CCCCC1 | i | -14.4%

For reference, two of the compounds above.
SMILES | Vaccinia mCherry | VACV Venus inh
O=C(CSc1nnc(CN2CCOCC2)n1-c1ccccc1)Nc1ccc(Cl)cc1 | -12.3% | -4.4%
COC(=O)c1c(C)oc(C)c1S(=O)(=O)N1CCCCC1 | i | -14.4%

Next entries:
SMILES | Vaccinia mCherry | VACV Venus inh
COCCNC(=O)CN1N=C(c2ccc(OC)cc2)CCC1=O | -12.5% | -6.2%
O=C(C1CCCN(S(=O)(=O)c2ccc(Cl)cc2)C1)N1CCCC1 (stereo not given) | 10.9% | -5.8%
O=C(OCCN1CCCCC1)c1ccccc1F | -6.4% | -5.3%
COc1cccc(NC(=O)CN(C)C(=O)c2oc3c(ccc4ccccc43)c2C)c1 | -7.4% | -10.9%
O=C(CSc1ccc(-c2ccco2)nn1)N1CCCC1 | i | -10.8%
COc1ccccc1N1CCN(C(c2ccc(Cl)cc2)c2nnnn2C(C)(C)C)CC1 (stereo not given) | · | 7.8%
O=S(=O)([N-]c1nc2ccccc2nc1-[n+]1ccccc1)c1ccccc1 | i | -5.5%
CC(=S)c1c(C)cc2cc(C)ccn12 | -21.3% | -6.1%
CC(=O)C1=C(O)C(=O)N(c2nccs2)C1c1ccccc1F (stereo not given) | 4.6% | 3.7%
CCC(C)C(N=C1NS(=O)(=O)c2ccccc21)C(=O)N1CCC(C)CC1 (stereo not given) | 3.3% | -4.3%
COc1cccc(C(=O)NCCOc2cc(C)cc(C)c2)c1 | i | -5.4%
Oc1ccc(C=NCC2COc3ccccc3O2)cc1 (stereo not given) | -23.1% | -8.8%
CCc1c(O)nc(SCc2nc3ccccc3c(=O)[nH]2)[nH]c1=O | 3.4% | -0.1%
COc1ccc2nc(C)cc(NCCN3CCOCC3)c2c1 | i | -10.1%
CCNC(=S)NCc1ccc(Cl)cc1 | -13.6% | 0.6%

In another format: four of the compounds above.
Second line of a record: Vaccinia mCherry | VACV Venus inh
Oc1ccc(C=NCC2COc3ccccc3O2)cc1 (stereo not given)
→ -23.1% | -8.8%
CCc1c(O)nc(SCc2nc3ccccc3c(=O)[nH]2)[nH]c1=O
→ 3.4% | -0.1%
COc1ccc2nc(C)cc(NCCN3CCOCC3)c2c1
→ i | -10.1%
CCNC(=S)NCc1ccc(Cl)cc1
→ -13.6% | 0.6%

(continued)
SMILES | Vaccinia mCherry | VACV Venus inh
CCOC(=O)[C@]12Cc3ccc(C)cc3[C@H]1N(C1CCCCC1)C(=O)c1ccccc12 | ? | ?
Cc1ccc(C(=O)NCc2ccco2)o1 | -9.5% | -10.3%
COCCN(Cc1cc2cc(C)ccc2n2nnnc12)C(=S)Nc1ccc(OC)cc1 | 4.0% | 0.0%
COc1ccc(C)cc1NC(=O)c1ccc(NS(=O)(=O)c2cccc3cccnc23)cc1 | ? | -13.5%
Cc1ccc(N(CC(=O)NCc2ccccc2Cl)S(=O)(=O)c2cccs2)cc1 | i | -16.6%
CCN(CC)S(=O)(=O)c1ccc(C(=O)Nn2cnnc2)cc1 | -15.7% | -14.9%
COc1cc(C2C3C(=O)N(Cc4ccccc4)C(=O)C3ON2c2ccccc2)cc(OC)c1OC (stereo not given) | · | -11.8%
CC(C)c1ccc(C(=O)NC(=S)Nc2ccc3[nH]c(=O)[nH]c3c2)cc1 | -21.8% | -1.7%
Cn1c2ccccc2c(=O)c2c(=O)n(C3CCCCC3)c(-c3ccco3)nc21 | -7.8% | -15.2%
CCc1ccccc1NS(=O)(=O)c1ccc2c(c1)CC(=O)N2 | -6.1% | -4.6%
COc1ccccc1NC(=O)Cn1cc(C(=O)C2CC2)c2ccccc21 | i | -14.5%
Cn1cccc1Cc1nnc(SCC(=O)Nc2cccc(Cl)c2)n1-c1ccc(F)cc1 | -13.2% | -6.1%
Cc1cc(C)c(NC(=O)C(C)c2cccc(C(=O)c3ccccc3)c2)c(C)c1 (stereo not given) | ? | -14.1%
CCCCOc1ccc(C2=NC(c3ccncc3)=Nc3ccc(OCC)cc3N2)cc1 | -11.6% | 1.9%
COc1cccc(OC)c1C(=O)Nc1nc2cc3c(cc2s1)OCO3 | i | -4.0%
NC(Cc1ccc(C(F)(F)F)cc1)c1csc(Nc2ccc(S(N)(=O)=O)cc2)n1 (stereo not given) | -11.0% | -18.8%
O=C(c1nc[nH]c1C(=O)N1CCN(c2ccccc2)CC1)N1CCN(c2ccccc2)CC1 | -9.8% | -15.1%
COc1ccc(CS(=O)(=O)CC2(O)CCN(C(=O)c3cccc(C(F)(F)F)c3)CC2)cc1 | -13.1% | -16.1%
O=S(=O)(c1ccc(-c2csc(Nc3ccc(F)cc3)n2)cc1)N1CCCC1 | -7.3% | ?
CC(=O)c1ccc(OCC(O)CN2CCN(Cc3ccc4c(c3)OCO4)CC2)cc1 (stereo not given) | -1.0%&4.4% | -11.1%&-7.7%
C/C(CC(=O)N(C(C)C)C(C)C)=N\NC(=O)c1ccccc1Br | i | -1.7%
N#C/C(=N\Nc1cccc([N+](=O)[O-])c1)C(=O)c1ccc(Br)cc1 | 1.78µM* | ?
CCC(C)NS(=O)(=O)c1ccc(OCC(=O)N2CCCC2)cc1 (stereo not given) | -8.3% | -10.5%
CC(C)C[C@H]1CNC(=O)C(=O)N1CC1CCN(CC2CCC(C(C)(C)C)CC2)CC1 (stereo not given in full) | -18.9% | -23.9%
COc1ccccc1CNC(=O)C(NS(=O)(=O)c1ccc2c(c1)OCCO2)C(C)C (stereo not given) | -15.3% | -2.1%
COc1ccc2c(c1)sc1nc(-c3ccccc3)cn12 | -19.4% | -26.6%
CN(C)c1nccc(N(Cc2ccccc2)Cc2ccccc2)c1C#N | · | -18.1%
C=CCN1C(=O)/C(=C/c2cc(C)n(-c3ccccn3)c2C)C(=O)NC1=S | -8.3% | 3.8%
COc1ccc(CCC(=O)OCC(=O)c2ccc[nH]2)cc1OC | -5.9% | -13.8%
CC(C)(C)NC(=O)CSc1n[nH]c(=O)n1-c1ccccc1 | i | -6.1%
COc1ccc(OC)c(N2C(=O)CC(Cc3cc(C)cc(C)c3)C2=O)c1 (stereo not given) | i | -13.7%
Cc1ccc(NC(=O)c2ccc(Cl)c(S(=O)(=O)N3CCCCCC3)c2)nc1 | -12.9% | -10.6%
O=C(CCNC(=O)c1ccccc1)NN=Cc1ccc(Br)o1 | -7.9% | 18.6%
CCC(C)NC(=O)C1CCN(S(=O)(=O)c2ccc(-n3cnnn3)cc2)CC1 (stereo not given) | i | -10.4%
CC(=O)Nc1cnc(-c2ccc3c(c2)OCO3)cn1 | i | -4.2%
Cc1ccc(NC(=O)c2cnc3ccccc3n2)cc1C | i | -14.0%
COc1cc2cc(Oc3ccc4ccc(=O)oc4c3)c(=O)oc2cc1O | -4.9% | 1.5%
Cc1ccc2nc(Nc3nc(C)cc(C(F)(F)F)n3)nc(C)c2c1 | -10.8% | -15.3%
Nc1cccc(O)c1 | -22.6% | -16.3%
O=C(Nc1ccc(F)cc1)c1sc2cc(C(F)(F)F)cnc2c1-c1cccs1 | · | -27.7%
CC(C)(C)c1ccc(-c2nnc(N)o2)cc1 | 2.1% | -24.2%
CCC1CCCCN1CCCNC(=O)CCC(=O)N1CCOc2ccccc21 (stereo not given) | -2.9% | -10.3%
CC(C)[C@H](NC(=O)Nc1cccc(C(F)(F)F)c1)C(=O)O | · | -7.4%
CCCn1c(=S)[nH]c2cc(C(=O)NCc3ccccc3OC)ccc2c1=O | -14.8% | -7.7%
O=C(CNC(=O)C1CCCCC1)OCCOc1ccccc1 | -20.8% | 3.8%
COc1cc(NC(=O)COC(=O)CNC(=O)C2CCCCC2)cc(OC)c1 | -20.9% | -6.8%
Cc1ccc(S(=O)(=O)N2CCCOC2CNC(=O)C(=O)NCCCn2ccnc2)cc1 (stereo not given) | -5.3% | -0.8%
CCCNC(=O)NC(=O)CSc1ccc2c(c1)OCCO2 | · | -20.9%
CN(CC(=O)O)Cc1oc(CO)cc(=O)c1O | -14.9% | 4.3%
COc1cc(/C=C(\C#N)C(=O)c2c(C)[nH]c3ccccc23)cc(OC)c1OC | -6.4% | -11.1%
O=C(/C=C/c1ccc2c(c1)OCCCO2)c1ccccc1O | -13.0% | -11.9%
Cc1ccc(-c2nnc(SCC(=O)N/N=C/c3c(C)nn(-c4ccccc4)c3C)n2-c2ccccc2)cc1 | -3.5% | -6.5%
O=C(Oc1coc(CSc2nnc(NC(=O)C3CC3)s2)cc1=O)c1ccccc1 | i | -13.6%
CC1CN(C(=O)c2cc3cc(Br)ccc3[nH]2)CC(C)O1 (stereo not given) | -11.7% | -26.5%
Cc1cccc(OCC(=O)N(Cc2ccco2)C2CCS(=O)(=O)C2)c1 (stereo not given) | i | -9.2%
CCc1cc2c(cc3c(=O)n(CC(=O)NCCCN4CC(C)CC(C)C4)ncn32)s1 (stereo not given) | -13.7% | -13.7%
CCn1c(CNC(=O)c2ccc(OC)cc2)nnc1SCC(=O)Nc1ccc(C)cc1 | -12.7% | -13.9%
COc1cccc(CNC(=O)C2Cc3ccccc3CN2C(C)=O)c1 (stereo not given) | -17.7% | -1.2%
CCCCCC(=O)NC(NC(=S)NC1CCS(=O)(=O)C1)C(Cl)(Cl)Cl (stereo not given) | -17.2% | -7.8%
CC(NC(=O)c1ccc(CSc2nc3ccncc3n2Cc2ccc(F)cc2)cc1)c1ccccc1 (stereo not given) | ? | -29.7%
Next records:
SMILES | Vaccinia mCherry | VACV Venus inh
O=C(Cn1cc(SCc2ccccc2F)c2ccccc21)N1CCCC1 | -15.0% | -11.6%
Cc1cc(C)cc(-n2c(C)nc3cc(C(=O)O)ccc32)c1 | 7.4% | -5.9%&10.8%
O=c1c2ccccc2c(C=Nc2cccc(S(=O)(=O)NCc3ccco3)c2)c(O)n1-c1ccc(Cl)cn1 | -13.8% | -15.0%
O=C1CCCC/C=C\C[C@H](CC(=O)N(CCO)Cc2ccccc2)C(=O)NCCO1 | i | -6.0%
COc1cc(CCN(C(=O)c2cccc(S(C)(=O)=O)c2)C(CCc2ccccc2)c2nc3ccccc3[nH]2)cc(OC)c1 (stereo not given) | 20.6% | -1.0%
CC1(C2CC2)NC(=O)NC1=O (stereo not given) | -10.0% | -8.7%
CC1(C)C2CCC1(C)C(NC(=O)COC(=O)c1ccc(S(C)(=O)=O)c([N+](=O)[O-])c1)C2 (stereo not given) | ? | ?
Cc1cc(NC(=O)CCCn2nc(C)c([N+](=O)[O-])c2C)no1 | i | 3.0%
Cc1nc2ccccc2n1CCc1nc2c3ccccc3nc(SCC(=O)Nc3ccc(C(C)C)cc3)n2n1 | ? | ?
CC1Sc2ccc(S(=O)(=O)N3CCC(C(=O)NCc4ccccc4)CC3)cc2NC1=O (stereo not given) | -11.4% | -12.2%
O=C1c2cccc3c([N+](=O)[O-])c(O)cc(c23)C(=O)N1Nc1ccccc1 | -12.1% | 8.0%
CCC(C)c1ccc(C(C)NC(=S)NC2CCCCC2)cc1 (stereo not given) | -19.0% | ?
COCCN(Cc1cccs1)S(=O)(=O)c1cc(-c2cc(C)no2)ccc1C | -1.1% | -21.0%
O=C(NCc1ccncc1)c1cnn(-c2nccc(-c3cccs3)n2)c1C1CC1 | -13.2% | -4.9%
COc1ccc(NC(=S)N2CCC3CC2c2cc(-c4ccc5c(c4)OCO5)ccc23)c(OC)c1 (stereo not given) | 20.4% | -3.6%
CCCCc1c(C)nc2c(-c3ccc(OC)cc3)c(C)[nH]n2c1=O | -13.4% | -15.4%
CCSC1=N/C(=C/c2ccsc2)C(=O)N1c1ccccc1 | -16.5% | -30.0%
CCSc1ncc(Cl)c(C(=O)Nc2sc3c(c2C(=O)NCc2cccnc2)CCCC3)n1 | i | -9.0%
Cc1ccc(CNCC(O)(c2ccccc2)c2ccc(Cl)cc2)cc1 (stereo not given) | -5.3% | -22.5%
C=CCNC(=O)c1ccc([N+](=O)[O-])c(Cl)c1 | -5.0% | -9.4%
COc1ccc(CC(=O)Nc2nnc(CC(C)C)s2)cc1S(=O)(=O)N1CCOCC1 | -13.8% | -5.1%
COc1ccc(C(=O)OCCN2C(=O)c3ccccc3C2=O)cc1 | -18.0% | -7.9%

Taken from above:
CCSC1=N/C(=C/c2ccsc2)C(=O)N1c1ccccc1 @ Vaccinia mCherry: -16.5%
COc1ccc(C(=O)OCCN2C(=O)c3ccccc3C2=O)cc1 @ VACV Venus inh: -7.9%

Screening data (PubChem)
